NPYLR7 agonist: agonists of mosquito NPYLR7 receptor, primary screen, cell-based, Aedes aegypti, calcium fluorescence, mosquito biting behavior. HEK293T NPYLR7/Galpha15, GCaMP6s calcium fluorescence. activation, % at 10 µM. actives 0.15% (n = 270,000). AID 1259423, 2018; in the data active = activation above about 40%;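 note: 0% = vehicle and 100% = reference agonist at the receptor; some compounds past the cut are filed as inactive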
NPYLR7 agonist max-min: second read-out of NPYLR7 agonist, no call of its own (marks repeat the call); activation, %; measured here: Max-Min RFU normalised activation; some inactives read as strong as hits;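 span of the calcium signal over five minutes; 0% = vehicle and 100% = native peptide agonist; compound fluorescence can raise it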
Starred values were filed as active, the others as inactive; & = joins results of further samples. These rows are one share of the data, so the mix of outcomes need not match the whole.

SMILES | NPYLR7 agonist | NPYLR7 agonist max-min
CCN(CC)CCCC(C)NC(=O)c1cc(-c2ccc(Cl)cc2)n(-c2ccc(C)cc2)c1C (stereo not drawn) | -1 | 7
Cn1c(C(=O)NC2CCCC2)cc2c(=O)n3ccccc3nc21 | 1&0 | -1&-2
COc1cc(NC(=O)CN2CCCC2c2cc(C)no2)ccc1Cl (stereo not drawn) | -4 | -7
c1ccc(N2CCN(c3cc(C4CC4)nc4ncnn34)CC2)cc1 | 0 | 0
C=CCOC(=O)C1=C(C)NC(=O)NC1c1ccccc1Br (stereo not drawn) | 1 | -2
COc1cccc(C(=O)Oc2cc(C)[nH]c(=O)c2[N+](=O)[O-])c1 | 12 | 11
O=C(O)COc1ccc(N=Cc2nc(-c3ccc(Br)cc3)oc2O)cc1 | -3 | -10
CC(=O)Oc1cc2oc3cc(C)ccc3[nH]c2c2c(=O)c3ccccc3c(=O)c12 | 7 | 9
CCC(CC)C(=O)N(C)c1c(C)nc2c(OCC(=O)c3ccc(Cl)cc3Cl)cccn12 | 10 | -3
CSCc1cc(F)ccc1CNC(=O)c1cccnc1 | 3 | 1
O=C(C=Cc1cccnc1)c1cccc([N+](=O)[O-])c1 | 9 | 4
CN(Cc1ccc(-n2cccn2)cc1)C(=O)c1cn(CC2CCCNC2)nn1 (stereo not drawn) | -4 | -4
COCCn1c(SCC(N)=O)nc2c([nH]c3ccccc32)c1=O | 1 | 1
O=c1[nH]c2ccccc2n1CN1CCN(c2ncccn2)CC1 | -9&10 | -8&16
O=C(COc1ccccc1F)c1ccc[nH]1 | 15 | 6
COCCCNC(=O)c1nn(C)c2c1CN(C(=O)C1(c3ccc(Cl)cc3)CCC1)CC2 | 14 | 4
CS(=O)(=O)Nc1cc(S(=O)(=O)Nc2ccc(Cl)cc2)ccc1O | -1 | -7
CC(C)Cn1c(COC(=O)Nc2ccccc2)nc2ccccc21 | 3 | 2
Cc1cn2c3c(=O)n(Cc4ccc(Cl)cc4)c(=O)n(C)c3nc2n1CC1CCCO1 (stereo not drawn) | -1 | -1
O=C(NCCc1csc2nc(-c3cccs3)nn12)c1cccc(C(F)(F)F)c1 | -13 | -9
Cc1nc(C)c(CC(=O)N2CCc3[nH]c4ccc(F)cc4c3C2)c(=O)[nH]1 | 15 | 15
COc1cccc(Cc2nsc(N3CCCN(C(=O)Nc4ccc(OC)cc4OC)CC3)n2)c1 | -9 | -11
O=C(CCc1ccccc1)N1CCCC(OCc2cc(F)cc(F)c2)C1 (stereo not drawn) | -2 | 2
Cc1ccc(-c2nnc(SCc3ccc(C(=O)N4CCN(C)CC4)cc3)n2-c2ccccc2C)cc1 | 22 | 34
CC(=O)Nc1nc(-c2cc3cc([N+](=O)[O-])ccc3oc2=O)cs1 | -2 | -11
CN1CCN(C(=O)C2CCC(O)CC2)CC1C(=O)O (stereo not drawn) | 0 | 3
Cc1cc(C(=O)NCc2cccnc2Oc2cccc(C(F)(F)F)c2)n[nH]1 | 1 | 3
C#CCOc1c(Cl)cc(CNC(C)c2cccs2)cc1OC (stereo not drawn) | -3 | -5
O=C(c1ccccc1Cl)N1CCCC(Nc2ccccc2)C1 (stereo not drawn) | 6 | 29
COCCCNC(=O)c1cc(NC(=O)C2C[C@H]2c2ccccc2)ccc1N1CCN(c2ccccc2OC)CC1 (stereo partly drawn) | 17 | 23
O=C(CC(NCCC1=CCCCC1)C(=O)O)Nc1cc(Cl)ccc1Cl (stereo not drawn) | 3 | 1
COc1ccccc1C(CC#N)C1CCOC(C)(C)C1 (stereo not drawn) | 4 | 3
O=C(c1ccco1)N1CCC(CN2C(=O)CSC2c2ccc(C(F)(F)F)cc2)CC1 (stereo not drawn) | -1 | -6
Cc1ncc(CN2CCC(c3nn(C)c(=O)n3Cc3ccccc3)CC2)cn1 | 4 | 2
Fc1cccc(C2c3cccn3CCCN2Cc2ccccn2)c1 (stereo not drawn) | 16 | 15
Cc1ccncc1NC(=O)C(C)Oc1ccccc1Br (stereo not drawn) | 3 | 0
CCOc1ccc(NC(=O)Cn2nc(-c3ccccc3)c3sc(N4CCCC4)nc3c2=O)cc1 | -2 | -7
Cc1ccc2[nH]c(CN(Cc3ccccn3)CC3CCCO3)nc2c1C (stereo not drawn) | -4 | -13
CN(C(=O)c1cc2ccccc2c(=O)[nH]1)c1ccccc1 | 1 | -1
Cc1ccc(-n2nc(C(C)(C)C)cc2NC(=O)CN(Cc2ccco2)C(=O)Nc2ccc(Cl)cc2Cl)c(C)c1 | 4 | 5
Cc1cc(C)c(S(=O)(=O)NCc2ccc3c(c2)OCO3)c(C)c1 | 2 | -4
Cc1cc(Nc2nc(-c3ccc(Br)cc3)c(C)s2)n(C)n1 | 2 | 0
COC(=O)c1sc(NC(=O)CN2CCCCCCC2)c(C(=O)OC)c1C | 2 | 1
Cc1ccc(NC(=O)c2cccnc2SCC(F)(F)F)c(Cl)c1 | 0 | -2
CC(C)c1nn(-c2ccccc2)cc1CNCC(C)(C)N1CCN(C)CC1 | 4 | 1
c1ccc(CN2CCN(c3nc(-c4ccc(Oc5ccccc5)cc4)nc4ccccc34)CC2)cc1 | 7 | 9
CCOC(=O)N1CCC(NCCc2nnc(N)s2)CC1 | 21 | 10
O=C(O)c1coc(CN(Cc2ccco2)Cc2ccccc2C(F)(F)F)n1 | 0 | -1

Complete entries, quoted from the list. Order of screens: NPYLR7 agonist	NPYLR7 agonist max-min
CCN(CC)CCCC(C)NC(=O)c1cc(-c2ccc(Cl)cc2)n(-c2ccc(C)cc2)c1C (stereo not drawn) is entered as -1	7
O=C(CCc1ccccc1)N1CCCC(OCc2cc(F)cc(F)c2)C1 (stereo not drawn) is entered as -2	2

Additional records follow:
SMILES | NPYLR7 agonist | NPYLR7 agonist max-min
Cc1ccccc1-c1nnn(CC(=O)N2CC(C)OC(C)C2)n1 (stereo not drawn) | 3 | 2
Cc1c(CN(C)Cc2cc(=O)c3ccccc3[nH]2)cnn1C | -3 | -1
CCC(C)N(Cc1c(-c2ccc(C)cc2)noc1N1CCCC1)C(=O)c1ccco1 (stereo not drawn) | 5 | 16
COCCN=c1scc(-c2ccco2)n1N=Cc1cc(Br)ccc1OC | -11 | -18
CCOc1cccc(OCCCOc2ccc(Cl)cc2C)c1 | -6 | 0
CC(C)(C)c1ccc2c(c1)CC(CNC(=O)c1ccc3ccccc3c1)O2 (stereo not drawn) | 3 | 3
Cc1cccc(-n2nc(C3CC3)c(C(=O)NCc3cccnc3)c2C(C)C)c1 | 8 | 17
O=C(CN1CSCC1=O)Nc1ccc(Br)cc1 | 8 | 5
O=C(C=Cc1ccc2c(c1)OCO2)N1CCN(S(=O)(=O)c2ccccc2Br)CC1 | 0 | 7
CCn1c(C2CCCNC2)nn(Cc2cc(=O)n3cc(C)sc3n2)c1=O (stereo not drawn) | -1 | -4
Cn1cccc1Cc1nnc(SCC(=O)NO)n1-c1ccc(OC(F)(F)F)cc1 | 7 | -1
Cc1nn2cccnc2c1C(=O)N1CCCN(C(C)(C)C)CC1 | 2 | 1
O=C(NC1(C(F)(F)F)Oc2ccccc2O1)N1CCCC1 | 2 | 4
O=C(Cn1cc(SCC(=O)N2CCCc3ccccc32)c2ccccc21)N1CCOCC1 | -5 | -6
Cc1c(Cl)c(C(F)(F)F)nn1CC(=O)Nc1cccc(Cl)c1Cl | 2 | 3
CN(CCCOc1ccc(Cl)cc1)C(=O)CNC(=O)c1ccccc1 | 3 | 3
CC(C)OCCCNC(=O)CC1CSc2nccc(=O)n21 (stereo not drawn) | -2 | -3
CN(C)CCN(C)[C@@H]1[C@H](O)[C@H](CO)O[C@@H]1CN | -10 | -14
CN(Cc1csc(-c2ccccc2)n1)Cc1nccn1C | -3 | -5
COc1ccc(N2CCN(C(=O)C3CC=CCC3C(=O)NCCc3ccc(O)cc3)CC2)cc1 (stereo not drawn) | -8 | -17
O=P(O)(O)C(NCc1ccc(F)cc1)c1ccsc1 (stereo not drawn) | 3 | -1
O=[N+]([O-])c1ccc(S(=O)(=O)NCC(c2ccco2)N2CCc3ccccc3C2)cc1 (stereo not drawn) | -1 | -5
O=C(NCc1ccncc1)c1ccc(OC2CCN(Cc3ccoc3)CC2)cc1 | 20 | 9
CC12CC(c3ccccc3O1)C(S(=O)(=O)c1ccc(F)cc1)C(=O)N2 (stereo not drawn) | 8 | 9
Cc1cccc(C(=O)Nc2cccc(C3SCCS3)c2)n1 | 10 | 2
CC(=NNC(=O)c1cc2c(s1)CCC(C)C2)c1ccc[nH]1 (stereo not drawn) | -1 | 9
CC(=O)Oc1c(-c2ccc(NC(=O)c3cccs3)cc2)c(-c2ccccc2F)nn1-c1ccccc1C | -1 | 6
COC(=O)c1ccc(C2NN(Cc3ccccc3)C3C(=O)NC(=O)C23)cc1 (stereo not drawn) | -10 | -18
CCCN1CCC(C)(C(=O)Nc2ccc3oc(CC)nc3c2)C1 (stereo not drawn) | 1 | -1
NC(=O)[C@@H]1CCCN1CC[C@H]1CN(C(=O)C2CC2)CC[C@H]1CC(=O)O | -7 | -15
CC(=O)Cn1c(=O)c2c(nc3n(-c4ccc(C)cc4)c(C)cn23)n(C)c1=O | 4 | -1
COc1ccc(CCn2c(-c3c(OC)ccc4ccccc34)nc3ccc(Cl)cc3c2=O)cc1 | 4 | 1
O=C(c1ccc(=O)[nH]n1)N1CCc2nnc(CCc3ccccc3)n2CC1 | 3 | 2
COc1cc(NC(=O)CCNC(=O)C23CC4CC(CC(C4)C2)C3)c(OC)cc1Cl | 11 | 6
COCCN(Cc1nccn1Cc1ccc(Cl)cc1Cl)C(=O)c1cccc(OC)c1 | -1 | 7
COc1ccc2c(c1)C1(CC(=O)N(CC(=O)N(C)C)C1=O)C(=O)N2CCCOc1ccccc1OC (stereo not drawn) | -1 | -6
O=C(OC1CCOC1=O)c1ccc([N+](=O)[O-])o1 (stereo not drawn) | 5 | 2
Nc1cc2c(cc1Cl)OCCCO2 | 0 | -1
O=C(NC(=S)NCCc1ccccc1)c1ccco1 | 6 | 10
O=C(Cc1cc2ccccc2[nH]c1=O)N1CCc2cc(Br)cc(F)c21 | -2 | -5
O=C(OCc1nccn1C(F)F)c1ccc(N2CCCC2=O)cc1 | -4 | -4
Cc1cc(C)nc(-n2nc(C)cc2NC(=O)CSc2nnnn2C)n1 | 1 | 8
Cc1c(C)c(C(=O)NCc2cccc(C(F)(F)F)c2)n(Cc2ccc(F)c(F)c2)c1C | 13 | 16
Cc1cnc(-n2cnnc2)c(/C=C/c2ccccc2)c1 | 23 | 7
Cc1ccc(CNC(=O)CCC2CCCN(C(=O)/C=C/c3ccccc3F)C2)o1 (stereo not drawn) | -4 | 2
O=C(c1c(F)cc(F)cc1F)N1CCC(n2cnc3ccc(F)cc32)CC1 | 23 | 13
Cc1cccc(Nc2ncccc2C(=O)NCc2ccc(N(C)C)cc2)c1C | -1 | -6
O=C(O)c1nnn(-c2ccccc2)c1CSc1ncccn1 | -3 | -5
COc1ccc(OCc2ccc(-c3nc(C#N)c(N4CCC(C(N)=O)CC4)o3)o2)cc1 | -1 | 3
CCOC(=O)C1CCCN(C(=O)c2cnn(C(C)(C)C)c2C(C)C)C1 (stereo not drawn) | 17 | 18
CCOC(=O)c1c(C)n(-c2ccccc2Cl)c2c1cc(O)c1ccccc12 | -4 | -11
Cn1ncc2c(NCc3ccccc3)nc(NCCCO)nc21 | 4 | 0
Cc1cc(C)cc(N2C(=O)CSC2c2ccc(NC(=O)CCc3ccccc3)cc2)c1 (stereo not drawn) | -1 | 10
CN1CCN(NC(=O)CC2CCCC2)CC1 | 4 | 10
CCc1nnc2n1N(C(C)=O)C(c1ccc(F)cc1)=C(C(C)=O)S2 | 7 | 5
Cc1ccc(NC(=O)CN(C)Cc2cc(F)cc3c2OCOC3)cc1 | 4 | 4
Cc1cc(C)c(C)c(S(=O)(=O)N2CCC(C(=O)NCc3ccc(CN(C)C)cc3)CC2)c1C | 4 | 11
OC(COCc1ccccc1)CN(Cc1cccn1Cc1ccccc1F)CC1CCCCC1 (stereo not drawn) | 2 | 4

Of the compounds above, these have an aryl methoxy group:
SMILES | NPYLR7 agonist | NPYLR7 agonist max-min
COc1cc(NC(=O)CN2CCCC2c2cc(C)no2)ccc1Cl (stereo not drawn) | -4 | -7
COc1cccc(C(=O)Oc2cc(C)[nH]c(=O)c2[N+](=O)[O-])c1 | 12 | 11
COc1cccc(Cc2nsc(N3CCCN(C(=O)Nc4ccc(OC)cc4OC)CC3)n2)c1 | -9 | -11
C#CCOc1c(Cl)cc(CNC(C)c2cccs2)cc1OC (stereo not drawn) | -3 | -5
COCCCNC(=O)c1cc(NC(=O)C2C[C@H]2c2ccccc2)ccc1N1CCN(c2ccccc2OC)CC1 (stereo partly drawn) | 17 | 23
COc1ccccc1C(CC#N)C1CCOC(C)(C)C1 (stereo not drawn) | 4 | 3
COCCN=c1scc(-c2ccco2)n1N=Cc1cc(Br)ccc1OC | -11 | -18
COc1ccc(N2CCN(C(=O)C3CC=CCC3C(=O)NCCc3ccc(O)cc3)CC2)cc1 (stereo not drawn) | -8 | -17
COc1ccc(CCn2c(-c3c(OC)ccc4ccccc34)nc3ccc(Cl)cc3c2=O)cc1 | 4 | 1
COc1cc(NC(=O)CCNC(=O)C23CC4CC(CC(C4)C2)C3)c(OC)cc1Cl | 11 | 6
COCCN(Cc1nccn1Cc1ccc(Cl)cc1Cl)C(=O)c1cccc(OC)c1 | -1 | 7
COc1ccc2c(c1)C1(CC(=O)N(CC(=O)N(C)C)C1=O)C(=O)N2CCCOc1ccccc1OC (stereo not drawn) | -1 | -6
COc1ccc(OCc2ccc(-c3nc(C#N)c(N4CCC(C(N)=O)CC4)o3)o2)cc1 | -1 | 3
